# FGF22 binding = shifts melting point of recombinant human FGF22. calls only at 9.99 µM. AID 651658. Q9HCT0. recombinant FGF22 thermal shift, SYPRO orange fluorescence; percent of sucrose octasulfate shift, DMSO zero. 340,000 compounds, 1.5% hits;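 active = melting point raised past a set limit in the mean and every replicate; three in four hits are not shown here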
# Target sequence (Q9HCT0 whole entry, looked up): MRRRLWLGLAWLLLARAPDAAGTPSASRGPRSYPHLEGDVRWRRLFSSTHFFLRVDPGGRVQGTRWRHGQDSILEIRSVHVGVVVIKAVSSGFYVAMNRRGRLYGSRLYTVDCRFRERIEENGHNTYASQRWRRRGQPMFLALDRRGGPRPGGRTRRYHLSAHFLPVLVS
# Calls only; i = inactive; + = active, no number.
entry	SMILES	FGF22 binding
1	C[C@@H]1CN([C@@H](C)CO)S(=O)(=O)c2ccc(C3=CCCCC3)cc2O[C@@H]1CN(C)Cc1ccncc1	i
2	CCNC(=O)[C@H]1[C@H](CO)[C@H]2Cn3c(ccc(-c4ccccc4F)c3=O)[C@@H]1N2CCC(F)(F)F	i
3	CCCC(=O)Nc1ccc2c(c1)OC[C@@H](C)N(C)C[C@@H](C)[C@@H](OC)CN(C)C2=O	i
4	CC(C)C#Cc1cnc2c(c1)C(=O)N([C@@H](C)CO)C[C@@H](C)[C@@H](CN(C)C(=O)c1ccccc1)O2	i
5	C[C@H](C(=O)N(C)C[C@H]1OCc2ccccc2-c2c(n(C)c3ccccc23)C(=O)N([C@H](C)CO)C[C@H]1C)c1ccccc1	i
6	C[C@@H]1CN([C@H](C)CO)C(=O)c2cc(N(C)C)ccc2O[C@@H](C)CCCCO[C@H]1CN(C)C(=O)c1ccccc1	i
7	O=C(C[C@H]1C[C@@H]2c3cc(NC(=O)Nc4ccc(C(F)(F)F)cc4)ccc3O[C@@H]2[C@@H](CO)O1)NC1CCCCC1	i
8	C[C@H](CO)N1C[C@H](C)[C@@H](CN(C)C(=O)CCC(F)(F)F)OCCCC[C@H](C)Oc2ccc(NS(=O)(=O)c3ccc(F)cc3)cc2C1=O	i
9	C[C@H](CO)N1C[C@H](C)[C@H](CN(C)C(=O)c2ccncc2)Oc2ncc(C#C[C@@H](C)O)cc2C1=O	i
10	O=C(N[C@@H]1CC[C@H](CCNC(=O)C2CCC2)O[C@@H]1CO)c1ccccn1	i
11	Cc1ccccc1S(=O)(=O)N1CCCCN2[C@@H](CO)[C@@H](c3ccc(-c4cccnc4)cc3)[C@@H]2C1	i
12	C[C@@H]1CCCCO[C@H](CN(C)S(=O)(=O)c2cccs2)[C@H](C)CN([C@H](C)CO)C(=O)c2cc(NC(=O)C3CCCCC3)ccc2O1	i
13	C[C@@H]1CN([C@H](C)CO)S(=O)(=O)c2ccc(-c3ccccc3F)cc2O[C@H]1CN(C)Cc1ccncc1	i
14	CN1C(=O)c2cc(NC(=O)C3CCCC3)ccc2OC[C@@H]2O[C@@H](CC(=O)NCC(F)(F)F)CC[C@H]21	i
15	CCC(=O)Nc1ccc2c(c1)C(=O)N(C)[C@H]1CC[C@H](CC(=O)NCCN3CCCCC3)O[C@H]1CO2	i
16	CC(C)C#Cc1ccc2c(c1)O[C@H](CN(C)C(=O)c1ccccn1)[C@H](C)CN([C@@H](C)CO)S2(=O)=O	i
17	Cc1noc(C)c1S(=O)(=O)Nc1ccc2c(c1)C(=O)N([C@@H](C)CO)C[C@@H](C)[C@H](CN(C)C(=O)Nc1cccc3ccccc13)OCCCC[C@H](C)O2	i
18	C[C@@H]1CN([C@H](C)CO)C(=O)c2cc(NC(=O)Cc3ccccc3)ccc2O[C@H]1CN(C)Cc1ccccc1	i
19	C[C@@H]1CN([C@@H](C)CO)C(=O)Cc2cc(NC(=O)Nc3ccc(F)cc3)ccc2O[C@H]1CN(C)Cc1ccc(C(=O)Nc2ccccc2N)cc1	i
20	Cc1noc(C)c1S(=O)(=O)Nc1ccc2c(c1)C(=O)N([C@H](C)CO)C[C@H](C)[C@H](CN(C)C(=O)Cc1ccccc1)OCCCC[C@H](C)O2	i
21	C[C@@H]1CN([C@@H](C)CO)C(=O)c2cc(NS(=O)(=O)c3ccc(Cl)cc3)ccc2O[C@@H](C)CCCCO[C@@H]1CN(C)S(=O)(=O)c1cccs1	i
22	Cc1ccc(S(=O)(=O)N(C)C[C@H]2Oc3ccc(NC(=O)NC(C)C)cc3C(=O)N([C@@H](C)CO)C[C@H]2C)cc1	i
23	O=C(CN1CCOCC1)N[C@H]1CC[C@@H](CCNS(=O)(=O)c2ccccc2F)O[C@H]1CO	i
24	COc1ccccc1NC(=O)N1[C@H](C#N)[C@H](c2ccccc2)[C@H]1CO	+
25	Cn1cnc(S(=O)(=O)N2CCCCN3[C@@H](CO)[C@@H](c4ccc(-c5cccc(F)c5)cc4)[C@@H]3C2)c1	i
26	COc1ccc(NC(=O)Nc2ccc3c(c2)C(=O)N([C@@H](C)CO)C[C@@H](C)[C@H](CN(C)S(=O)(=O)c2ccc(OC)cc2)O3)cc1	i
27	Cc1ccc(S(=O)(=O)Nc2ccc3c(c2)CC(=O)N([C@@H](C)CO)C[C@H](C)[C@H](CN(C)C(=O)Nc2c(C)noc2C)O3)cc1	i
28	C[C@@H]1CN([C@@H](C)CO)C(=O)c2cc(NC(=O)Nc3ccc4c(c3)OCO4)ccc2O[C@@H](C)CCCCO[C@@H]1CN(C)C(=O)c1ccccc1	i
29	C[C@H]1CN([C@@H](C)CO)C(=O)c2cc(NC(=O)Nc3ccc(F)cc3)ccc2O[C@@H]1CN(C)C(=O)Nc1ccc(F)cc1	i
30	CN(Cc1ccco1)C(=O)[C@@H](Cc1ccccc1)NC(=O)[C@H]1O[C@@H](n2ccc(=O)[nH]c2=O)[C@H](O)[C@@H]1O	i
31	CCC(=O)Nc1ccc2c(c1)C(=O)N(C)[C@H]1CC[C@@H](CC(=O)NCCCN(C)C)O[C@@H]1CO2	i
32	O=C(NCC1CC1)[C@@H]1[C@@H](CO)[C@@H]2Cn3c(ccc(-c4cccc(F)c4)c3=O)[C@@H]2N1CC1CCCC1	i
33	C/C=C/c1ccc([C@H]2[C@@H](CO)N3CCCCN(CCC(F)(F)F)C[C@@H]23)cc1	i
34	CN1C(=O)c2cc(NC(=O)c3cscn3)ccc2OC[C@@H]2O[C@@H](CC(=O)N3CCCCC3)CC[C@@H]21	i
35	CCC(=O)N1CC2(CCN(Cc3cccnc3)CC2)c2c(n(C)c3cc(OC)ccc23)[C@H]1CO	i
36	COc1ccc2c3c(n(C)c2c1)[C@H](CO)N(CC1CC1)CC31CCN(Cc2ccc(F)cc2)CC1	i
37	O=C(Nc1ccc(F)cc1)N1C[C@@H]2[C@H](c3ccccc31)[C@@H](CO)N2Cc1ccccc1	i
38	CO[C@H]1CN(C)C(=O)c2ccc(NC(=O)C3CCOCC3)cc2OC[C@@H](C)NC[C@H]1C	i
39	COCc1cn(CC[C@H]2CC[C@H](NC(=O)Nc3ccc(OC)cc3)[C@H](CO)O2)nn1	i
40	C/C=C/c1cnc2c(c1)C(=O)N([C@@H](C)CO)C[C@H](C)[C@@H](CN(C)C(=O)C1CCCCC1)O2	i
41	C[C@H](CO)N1C[C@H](C)[C@H](CN(C)C(=O)Nc2ccc(C(F)(F)F)cc2)Oc2ccc(NC(=O)Cc3cn(C)c4ccccc34)cc2CC1=O	i
42	COc1ccc(S(=O)(=O)Nc2ccc3c(c2)C(=O)N([C@H](C)CO)C[C@H](C)[C@@H](CN(C)Cc2ccccc2)OCCCC[C@H](C)O3)cc1	i
43	COc1ccc(CN(C)C[C@@H]2Oc3ccc(NC(=O)Cn4cnnn4)cc3CC(=O)N([C@H](C)CO)C[C@@H]2C)cc1	i
44	C[C@@H](O)C#Cc1ccc([C@H]2[C@H](CO)N3CCCCN(C(=O)Nc4ccccc4)C[C@@H]23)cc1	i
45	COc1ccc(C#Cc2ccc([C@@H]3[C@@H](CO)N4CCCCN(C)C[C@@H]34)cc2)cc1	i
46	COc1ccc(S(=O)(=O)N(C)C[C@H]2Oc3ccc(NC(=O)NC(C)C)cc3CC(=O)N([C@@H](C)CO)C[C@H]2C)cc1	i
47	O=C(C[C@H]1CC[C@H]2[C@@H](COC[C@H](O)CN2Cc2ccc3c(c2)OCO3)O1)Nc1ccccc1	i
48	C[C@H](CO)N1C[C@H](C)[C@H](CN(C)Cc2ccncc2)Oc2ccc(NC(=O)NC3CCCCC3)cc2C1=O	i
49	COc1ccc2c3c([nH]c2c1)[C@H](CO)N(C(=O)C1CCCC1)CC31CN(C(=O)NC(C)C)C1	i
50	C[C@@H]1CN([C@@H](C)CO)S(=O)(=O)c2ccc(-c3ccccc3F)cc2O[C@H]1CN(C)Cc1cncnc1	i
51	CCNC(=O)Nc1ccc2c(c1)C(=O)N(C)[C@@H]1CC[C@H](CC(=O)N[C@@H](C)c3ccccc3)O[C@@H]1CO2	i
52	CN(C)CC(=O)N[C@H]1CC[C@@H](CC(=O)NCc2ccc(Cl)cc2)O[C@@H]1CO	i
53	C[C@H](NC(=O)C[C@@H]1C[C@@H]2c3cc(NC(=O)NC4CCCCC4)ccc3O[C@@H]2[C@H](CO)O1)c1ccccc1	i
54	COCCNC(=O)C[C@@H]1CC[C@H]2[C@@H](COc3ccc(NC(=O)c4cc(C)on4)cc3C(=O)N2C)O1	i
55	COc1ccc(S(=O)(=O)N(C)C[C@H]2OCCCC[C@H](C)Oc3ccc(NC(=O)Nc4c(C)noc4C)cc3C(=O)N([C@@H](C)CO)C[C@H]2C)cc1	i
56	C[C@H](CO)N1C[C@H](C)[C@H](CN(C)C(=O)C2CCCCC2)OCCCC[C@H](C)Oc2ccc(NC(=O)NC3CCCCC3)cc2C1=O	i

# More records follow:
entry	SMILES	FGF22 binding
57	Cc1ccc(S(=O)(=O)Nc2ccc3c(c2)CC(=O)N([C@@H](C)CO)C[C@@H](C)[C@@H](CN(C)S(=O)(=O)c2cn(C)cn2)O3)cc1	i
58	C[C@H](CO)N1C[C@H](C)[C@H](CN(C)C(=O)NC2CCCCC2)Oc2ncc(C#CCN(C)C)cc2C1=O	i
59	O=C(c1cccc(F)c1)N1CC[C@@H]2[C@@H](CO)Nc3ccc(C#Cc4cccc(F)c4)cc3[C@@H]21	i
60	C[C@H](CO)N1C[C@H](C)[C@@H](CN(C)C)Oc2ncc(C#CCN(C)C)cc2C1=O	i
61	O=C(C[C@H]1C[C@H]2c3cc(NC(=O)CC4CC4)ccc3O[C@H]2[C@H](CO)O1)NCc1cccnc1	i
62	CO[C@@H]1CN(C)C(=O)c2cc(NC(=O)c3ccc(F)cc3)ccc2OC[C@H](C)N(C)C[C@@H]1C	i
63	O=C(C[C@@H]1C=C[C@@H](NC(=O)c2ccccc2)[C@H](CO)O1)Nc1ccc(-c2ccccc2)cc1	i
64	COCC(=O)Nc1ccc2c(c1)[C@H]1C[C@@H](CC(=O)NCc3cccc(F)c3)O[C@H](CO)[C@H]1O2	i

# Reformatted field by field: entries from further up
35: CCC(=O)N1CC2(CCN(Cc3cccnc3)CC2)c2c(n(C)c3cc(OC)ccc23)[C@H]1CO
- FGF22 binding: i
36: COc1ccc2c3c(n(C)c2c1)[C@H](CO)N(CC1CC1)CC31CCN(Cc2ccc(F)cc2)CC1
- FGF22 binding: i

# Reprinted at random: 7 compounds from above, in no set order.
entry	SMILES	FGF22 binding
57	Cc1ccc(S(=O)(=O)Nc2ccc3c(c2)CC(=O)N([C@@H](C)CO)C[C@@H](C)[C@@H](CN(C)S(=O)(=O)c2cn(C)cn2)O3)cc1	i
35	CCC(=O)N1CC2(CCN(Cc3cccnc3)CC2)c2c(n(C)c3cc(OC)ccc23)[C@H]1CO	i
49	COc1ccc2c3c([nH]c2c1)[C@H](CO)N(C(=O)C1CCCC1)CC31CN(C(=O)NC(C)C)C1	i
34	CN1C(=O)c2cc(NC(=O)c3cscn3)ccc2OC[C@@H]2O[C@@H](CC(=O)N3CCCCC3)CC[C@@H]21	i
42	COc1ccc(S(=O)(=O)Nc2ccc3c(c2)C(=O)N([C@H](C)CO)C[C@H](C)[C@@H](CN(C)Cc2ccccc2)OCCCC[C@H](C)O3)cc1	i
17	Cc1noc(C)c1S(=O)(=O)Nc1ccc2c(c1)C(=O)N([C@@H](C)CO)C[C@@H](C)[C@H](CN(C)C(=O)Nc1cccc3ccccc13)OCCCC[C@H](C)O2	i
24	COc1ccccc1NC(=O)N1[C@H](C#N)[C@H](c2ccccc2)[C@H]1CO	+

# The list goes on:
entry	SMILES	FGF22 binding
65	C[C@H](CO)N1C[C@H](C)[C@H](CN(C)S(=O)(=O)c2cn(C)cn2)Oc2ncc(-c3ccc(F)cc3)cc2C1=O	i
66	COCCNC(=O)C[C@@H]1CC[C@H]2[C@@H](COC[C@H](O)CN2Cc2cccc(-c3ccncc3)c2)O1	i
67	CCCNC(=O)Nc1ccc2c(c1)OC[C@@H](C)N(Cc1ccccn1)C[C@@H](C)[C@H](OC)CN(C)C2=O	i
68	CC(C)C[C@@H]1COc2cccc(NCCO)c2S(=O)(=O)N1	i
69	COCC(=O)N(C)C[C@H]1Oc2cc(-c3ccc(F)cc3)ccc2S(=O)(=O)N([C@@H](C)CO)C[C@@H]1C	i
70	CO[C@@H](CN(C)C(=O)Nc1ccc(Cl)cc1)[C@@H](C)CN(Cc1ccccc1Cl)[C@H](C)CO	i
71	C[C@@H]1CN([C@H](C)CO)C(=O)Cc2cc(NC(=O)Nc3ccc(F)cc3)ccc2O[C@@H]1CN(C)CC1CC1	i
72	C/C=C/c1cnc2c(c1)C(=O)N([C@@H](C)CO)C[C@@H](C)[C@H](CN(C)C(=O)Nc1ccc(F)cc1)O2	i
73	COc1cccc(NC(=O)N2CC3(C2)[C@@H](c2ccccc2)[C@@H](CO)N3C(=O)C2CCC2)c1	i
74	C[C@H](CO)N1C[C@H](C)[C@@H](CN(C)C(=O)Nc2ccc(C(F)(F)F)cc2)Oc2ccc(NS(=O)(=O)c3ccc(Cl)cc3)cc2CC1=O	i
75	C[C@@H]1CN([C@H](C)CO)C(=O)c2cccc(NC(=O)Nc3ccccc3)c2O[C@@H]1CN(C)Cc1ccc(C(F)(F)F)cc1	i
76	COc1ccccc1NC(=O)N1CCCCN2[C@H](CO)[C@@H](c3ccc(-c4cccc(F)c4)cc3)[C@@H]2C1	i
77	CCCN1C[C@H](C)[C@H](OC)CN(C)C(=O)c2cc(NC(=O)c3ccccc3F)ccc2OC[C@H]1C	i
78	COc1cccc(-c2ccc3c(c2)[C@H]2[C@H](CCN2C(=O)Nc2ccccc2OC)[C@H](CO)N3C)c1	i
79	C[C@@H]1CCCCO[C@@H](CN(C)C)[C@H](C)CN([C@@H](C)CO)C(=O)c2cc(NC(=O)CCC(F)(F)F)ccc2O1	i
80	C[C@@H]1CCCCO[C@H](CN(C)Cc2ccccc2)[C@H](C)CN([C@H](C)CO)C(=O)c2cc(NC(=O)c3ccccc3)ccc2O1	i
81	C[C@H](CO)N1C[C@H](C)[C@@H](CN(C)S(=O)(=O)c2ccccc2)Oc2ccc(NC(=O)CCC(F)(F)F)cc2CC1=O	i
82	CC(C)(C)S(=O)N1C[C@H]2CC(=O)C(CCO)=C2[C@@H]1CCO (stereo partly drawn)	i
83	CC=Cc1ccc2n(c1=O)C[C@@H]1[C@@H](CO)[C@H](C(=O)NCC(F)(F)F)[C@H]2N1C(=O)C1CCC1 (mixture of isomers)	i

# Some of the compounds tested; rates above refer to the full screens.
